# Screening results deposited in PubChem BioAssay by National Center for Advancing Translational Sciences (NCATS).
# MARV entry inh – Marburg virus entry inhibition | Marburg virus pseudotyped entry inhibition, cell reporter; control for the full effect not named in the record; about a third of the inactives were read at about 46 µM | Potency, µM (doses to about 37.8 µM), for inactives: top-dose activity change, negative = inhibition, most hits filed as inhibitors | 300,000 tested, 1.8% active | AID 540276; active = well fitted inhibition curve with a large enough effect; inconclusive = small, poorly fitted or top-dose-only effect, or effect the other way; inactive = flat fitted curve, though single readings scatter; tested in HEK293 cells; about a fifth of its hits are not listed in these tables; also: % is scaled to controls: 0 for no effect and ±100 for the full control effect; luciferase read-out
# NS1 inh – inhibitors of influenza NS1 protein function; S. cerevisiae slowed by influenza A NS1, growth recovery by OD600; Potency, µM (doses to about 46.1 µM), without a hit: top-dose activity, positive = more growth; 270,000 tested, 0.4% active; AID 2326; active means well fitted rising curve with a large enough effect; inconclusive means small, poorly fitted or top-dose-only effect; inactive means no such curve, though single readings can be large or run the other way; also: nearly all actives have a fitted effect of over 50% in size
#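 Growth recovery, yeast-based: influenza A NS1 expressed in S. cerevisiae causes slow growth, and suppressors are detected by OD600. The parent strain without NS1 is used as positive control.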
# Cruzain inh noDet – cruzain (T. cruzi) inhibition without detergent; P25779; Potency, µM, for inactives: max response, negative = inhibition, usual class: inhibitors; purified cruzain, Z-FR-AMC fluorescence, no detergent; 200,000 tested, 2.3% active;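 also: plate controls were enzyme without inhibitor for no effect and buffer without enzyme for full effect; nearly all actives have a fitted effect of over 40% in size; top concentration of the series not given in the record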
# Target sequence (P25779 123-467 limits assumed): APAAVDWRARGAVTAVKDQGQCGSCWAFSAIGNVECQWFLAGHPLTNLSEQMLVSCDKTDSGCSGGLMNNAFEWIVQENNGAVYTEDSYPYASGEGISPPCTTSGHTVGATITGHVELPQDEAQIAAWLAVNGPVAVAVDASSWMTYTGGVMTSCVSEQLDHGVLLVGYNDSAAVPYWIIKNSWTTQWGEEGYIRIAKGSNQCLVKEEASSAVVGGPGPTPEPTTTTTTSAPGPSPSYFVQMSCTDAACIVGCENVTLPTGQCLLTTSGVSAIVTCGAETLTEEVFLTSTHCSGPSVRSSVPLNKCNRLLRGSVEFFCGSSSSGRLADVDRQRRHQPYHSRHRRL
#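 Detergent-free condition (0.00005% Triton X-100) in acetate buffer pH 5.5 with DTT. 1.5 nM enzyme and compound were pre-mixed 15 min, then 2 uM Z-FR-AMC substrate added; reaction progress from fluorescence change between first and third reads (60 s).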
# LASV entry inh – Lassa virus entry inhibition | Potency, µM (series often up to 37.9 µM), inactives show at the highest dose activity change, negative = inhibition, hits mostly inhibitors | 300,000 tested, 1.2% active | Lassa virus pseudotype entry inhibition, cell reporter; control for the full effect not named in the record; active means well fitted inhibition curve with a large enough effect; inconclusive means small, poorly fitted or top-dose-only effect, or effect the other way; inactive means flat fitted curve, though single readings scatter; tested in HEK293 cells; also: % is scaled to controls: 0 for no effect and ±100 for the full control effect; nearly all actives have a fitted effect of over 50% in size; luciferase read-out
# StopGo reporter – lowers the luciferase signal of an FMDV 2A StopGo reporter; human cells with a luciferase reporter of 2A StopGo recoding; control for the full effect not named in the record; Potency, µM (highest dose often 57.9 µM), without a hit: at the highest dose signal change, negative = less light; 410,000 tested, 1.2% active; active = well fitted falling curve with a large enough effect; inconclusive = small, poorly fitted or top-dose-only effect; inactive = no such curve, though single readings can be large or run the other way; tested in HEK293T cells; also: % is scaled to controls: 0 for no effect and ±100 for the full control effect; nearly all actives have a fitted effect of over 45% in size; luciferase light after 4 h
# SARS PLpro yeast – inhibitors of SARS-CoV papain-like protease in yeast; S. cerevisiae expressing SARS-CoV PLpro, growth rescue; control for the full effect not named in the record; Potency, µM (doses to about 32.9 µM), without a hit: at the top dose activity, positive = growth rescue; 330,000 tested, 0.19% active; active means well fitted rising curve with a large enough effect; inconclusive means small, poorly fitted or top-dose-only effect; inactive means no such curve, though single readings can be large or run the other way; also: 0% is about no effect; nearly all actives have a fitted effect of over 55% in size; growth read by luminescence after 48 h
# Cruzain inh Det – cruzain (T. cruzi) inhibition with detergent; P25779; purified cruzain, Z-FR-AMC fluorescence, 0.01% Triton; Potency, µM, inactives show max response, negative = inhibition, hits mostly inhibitors; 200,000 tested, 0.43% active;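 also: plate controls were neutral wells for no effect and buffer without enzyme for full effect; nearly all actives have a fitted effect of over 40% in size; top concentration of the series not given in the record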
#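 Compounds were screened in titration against cruzain (1.5 nM) with 0.01% Triton X-100 to counter colloidal aggregation. Activity was the AMC fluorescence increase over 60 s after adding 2 uM Z-FR-AMC at pH 5.5.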
# RE007 growth inh – less growth of the S. pombe RE007 Vpr strain; S. pombe RE007 Vpr strain, BacTiter-Glo ATP luminescence, 24 h; control for the full effect not named in the record; Potency, µM (doses to about 92.2 µM), without a hit: at the top dose activity change, negative = less growth; 360,000 tested, 0.21% active; AID 651644; active = well fitted falling curve with a large enough effect; inconclusive = small, poorly fitted or top-dose-only effect; inactive = no such curve, though single readings can be large or run the other way;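 also: % is scaled to controls: 0 for no effect and ±100 for the full control effect; nearly all actives have a fitted effect of over 50% in size; the assay follows cell death caused by Vpr and the record does not say whether a fall means rescue or toxicity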
#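 Fission yeast strain RE007, carrying one chromosomally integrated HIV-1 vpr copy, was seeded at OD 0.01 in PMG+AL medium with 23 nL pinned compound. After 24 h at 30 °C and 99% humidity, viability was read by BacTiter-Glo luminescence.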
# Numbers without * were called inactive; ? = inconclusive; . = not tested or not shown; & = joins results of further samples; [ ] = remark or other dose. Unless noted, calls follow the shape of the dose curve; as a rule, active = well fitted curve in the direction sought with a large enough effect; inconclusive = small, poorly fitted or top-dose-only effect, or another doubt; inactive = no such curve, though single readings can be large; an effect the other way counts as inactive or inconclusive. Potency is read from the fitted curve at half-maximal effect.
# Labels used below – A = MARV entry inh; B = NS1 inh; C = Cruzain inh noDet; D = LASV entry inh; E = StopGo reporter; F = SARS PLpro yeast; G = Cruzain inh Det; H = RE007 growth inh
1. CCc1c(C)nc(SCCOc2ccc(OC)cc2)[nH]c1=O
  A = .	B = -7%	C = -8%	D = .	E = -25%	F = 2%	G = 3.1%	H = 13%
2. CC(C)N1C(=O)NC(=O)C2(Cc3cc([N+](=O)[O-])ccc3N(C)C2c2ccccc2)C1=O (stereo not given)
  A = ?	B = 2%	C = -6%	D = -3%	E = ?	F = -6%	G = -12%	H = -10%
3. CN1CCN(c2ccc(NC(=O)c3ccc4c(c3)OCO4)cc2)CC1
  A = ?	B = -2%	C = 0%	D = 10%	E = 30%	F = -7%	G = 1.6%	H = -4%
4. Cn1c(=O)c2c(nc(NCCO)n2C)n(C)c1=O
  A = 13%	B = 0%	C = 11%	D = 2%	E = -10%	F = 1%	G = 4.9%	H = 1%
5. Cc1cc(S(=O)(=O)NCCC2=CCCCC2)ccc1Br
  A = 0%	B = .	C = .	D = -31%	E = 44%[activator]	F = -1%	G = .	H = -21%
6. CCCN1CCN(CCCNC(=O)CN2C(=O)c3cccnc3Oc3ccc(C)cc32)CC1
  A = 3%[46.1 µM]	B = -2%	C = .	D = -3%[46.1 µM]	E = -12%	F = -2%	G = .	H = -18%
7. Cn1nccc1C(=O)NC1CCCc2c1cnn2-c1ccc(C(C)(C)C)cc1 (stereo not given)
  A = ?	B = -51%	C = .	D = ?	E = ?	F = -8%	G = .	H = 2%
8. O=C(NNC(=S)Nc1ccccc1)c1cc(-c2cccnc2)nc2ccccc12
  A = 4%	B = -5%	C = .	D = 0%	E = 52%[activator]	F = 2%	G = .	H = 14%
9. O=C(c1cnn(C(=O)c2ccccc2F)c1)c1ccccc1O
  A = 15%	B = .	C = .	D = 27%	E = 8%	F = -3%	G = .	H = -13%
10. FC(F)c1nnc2ccc(Cl)nn12
  A = ?	B = .	C = .	D = 1%[46.1 µM]	E = -7%	F = -4%	G = .	H = -10%
11. COc1ccc(Cn2c(C)c(C)c(C#N)c2NC(=O)Nc2ccccc2)cc1
  A = 19%	B = 7%	C = 5%	D = 16%	E = 51%[activator]	F = 7%	G = -0.6%	H = 5%
12. O=C(Nc1cccc(C(=O)O)c1)/C(=C\c1ccco1)NC(=O)c1ccccc1Cl
  A = 12%[46.1 µM]	B = 4%	C = .	D = -1%	E = 9%	F = 2%	G = .	H = 1%
13. CC(=O)OC1CCC2(C)C(=CCC3C2CCC2(C)C3CC3OC4(CCC(C)CN4)C(C)C32)C1 (stereo not given)
  A = .	B = 6%	C = .	D = .	E = -16%	F = 0%	G = .	H = 4%
14. Cc1ccc(NC(=O)C2CCCN2C(=O)c2cccs2)c(C)c1 (stereo not given)
  A = 2%[46.1 µM]	B = 9%	C = .	D = 0%[46.1 µM]	E = 5%	F = -2%	G = .	H = 9%
15. CC(=O)c1cnn(-c2cc(Oc3ccccc3C)ncn2)c1C
  A = -1%	B = -3%	C = -11%	D = -10%	E = -13%	F = 4%	G = 1.1%	H = 4%
16. Cc1ccc(OC(=O)CCN2C(=O)c3ccccc3C2=O)cc1C
  A = 17%[46.1 µM]	B = .	C = .	D = 15%	E = 2%	F = 2%	G = .	H = 2%
17. CCOC(=O)CC1CCCCN1Cc1cn(C)nc1-c1ccc2c(c1)OCCO2 (stereo not given)
  A = 1%[46.1 µM]	B = 2%	C = .	D = 1%	E = 0%	F = 0%	G = .	H = -14%
18. Cc1oc(-c2ccccc2F)nc1CS(=O)(=O)CC(=O)N1CCN(Cc2ccccc2)CC1
  A = -37%&-37%	B = -36%	C = -2%	D = ?	E = ?	F = 6%	G = 0.0%	H = -13%
19. CC1CC(C)(C)NC(=S)N1CCCC(=O)N1CCN(c2ccccc2F)CC1 (stereo not given)
  A = ?	B = 6%	C = 16%	D = ?	E = -14%	F = 12%	G = -1.8%	H = 4%
20. O=C(Nc1cccc(Cl)c1)C1C2C=CC3(O2)C1C(=O)N(CCCN1CCCCC1)C3C(=O)NC1CCCCC1 (stereo not given)
  A = 8%[46.1 µM]	B = -7%	C = .	D = 15%[46.1 µM]	E = -11%	F = 14%	G = .	H = 17%
21. CCN(c1ccccc1C(=O)O)S(=O)(=O)c1cccc2nsnc12
  A = 10%[46.1 µM]	B = 5%	C = .	D = 12%[46.1 µM]	E = -10%	F = 0%	G = .	H = 7%
22. CCOC(=O)c1c(C)[nH]c(C(=O)OCC(=O)NC2CCS(=O)(=O)C2)c1C (stereo not given)
  A = 2%	B = 3%	C = 0%	D = ?	E = 10%	F = -2%	G = 2.9%	H = -5%
23. COC(=O)c1sc2ccccc2c1-n1cccc1C(=O)C(=O)Nc1ccc(OC)cc1
  A = ?	B = 18%	C = ?	D = ?	E = -21%	F = -1%	G = 0.7%	H = 16%
24. CSc1ccccc1NC(=O)COC(=O)/C=C/c1ccco1
  A = ?	B = .	C = .	D = 27%	E = -7%	F = -5%	G = .	H = -29%
25. COc1ccc(-c2nnc(SCc3cccc(C#N)c3)o2)cc1
  A = -26%	B = -42%	C = 1%	D = ?	E = .	F = -2%	G = -7.4%	H = 1%

# Looked up above:
# For RE007 growth inh, cpd 21 reads 7%
# For StopGo reporter, cpd 5 reads 44%[activator]
# For Cruzain inh Det, cpd 2 reads -12%

# Continued:
# Labels used below – A = MARV entry inh; B = NS1 inh; C = Cruzain inh noDet; D = LASV entry inh; E = StopGo reporter; F = SARS PLpro yeast; G = Cruzain inh Det; H = RE007 growth inh
26. CCOc1ccc(S(=O)(=O)N2CCOCC2)cc1NS(=O)(=O)c1ccc(OC)c([N+](=O)[O-])c1
  A = 9%	B = .	C = .	D = 7%	E = 32%[activator]	F = 0%	G = .	H = -9%
27. O=C(ON=C1CCN(S(=O)(=O)c2ccccc2)CC1)c1ccc(Cl)cc1
  A = ?	B = -8%	C = 20%	D = 18%	E = 8%	F = -87%	G = -3.9%	H = 3%
28. CCOC(=O)N1CCN(S(=O)(=O)CCNC(=O)c2cccc(OC)c2)CC1
  A = 0%	B = .	C = .	D = 10%[46.1 µM]	E = -10%	F = 0%	G = .	H = 1%
29. Cc1ccc(S(=O)(=O)N/N=C/c2cccc3c2OCCO3)cc1
  A = ?	B = -10%	C = -6%	D = -1%	E = -11%	F = 6%	G = -7.0%	H = 6%
30. CN1CCN(CC(=O)Nc2ccccc2Sc2ccccc2)CC1
  A = ?	B = 0%	C = .	D = 10%	E = -20%	F = 0%	G = .	H = -5%
31. Cc1ccc(S(=O)(=O)N2CCCCC2)cc1C(=O)N1CCCCCC1
  A = -9%	B = .	C = .	D = -1%	E = -4%	F = 1%	G = .	H = 14%
32. CCNC(=S)N1CCN(c2ccc([N+](=O)[O-])cc2)CC1
  A = 2%	B = -14%	C = -5%	D = -10%	E = ?	F = -3%	G = -8.2%	H = -2%
33. Cc1ccc(C(=O)NCC(=O)OCC(=O)c2ccc3c(c2)NC(=O)CO3)cc1C
  A = -9%[46.1 µM]	B = -1%	C = .	D = 2%	E = -8%	F = 0%	G = .	H = -19%
34. CCN(CC)c1nc2ccccc2nc1C(=O)Nc1cc(OC)c(OC)c(OC)c1
  A = .	B = .	C = ?	D = -18%[46.1 µM]	E = ?	F = .	G = -3.5%	H = .

# Random excerpt: seven compounds from above
# Labels used below – A = MARV entry inh; B = NS1 inh; C = Cruzain inh noDet; D = LASV entry inh; E = StopGo reporter; F = SARS PLpro yeast; G = Cruzain inh Det; H = RE007 growth inh
27. O=C(ON=C1CCN(S(=O)(=O)c2ccccc2)CC1)c1ccc(Cl)cc1
  A = ?	B = -8%	C = 20%	D = 18%	E = 8%	F = -87%	G = -3.9%	H = 3%
29. Cc1ccc(S(=O)(=O)N/N=C/c2cccc3c2OCCO3)cc1
  A = ?	B = -10%	C = -6%	D = -1%	E = -11%	F = 6%	G = -7.0%	H = 6%
28. CCOC(=O)N1CCN(S(=O)(=O)CCNC(=O)c2cccc(OC)c2)CC1
  A = 0%	B = .	C = .	D = 10%[46.1 µM]	E = -10%	F = 0%	G = .	H = 1%
32. CCNC(=S)N1CCN(c2ccc([N+](=O)[O-])cc2)CC1
  A = 2%	B = -14%	C = -5%	D = -10%	E = ?	F = -3%	G = -8.2%	H = -2%
30. CN1CCN(CC(=O)Nc2ccccc2Sc2ccccc2)CC1
  A = ?	B = 0%	C = .	D = 10%	E = -20%	F = 0%	G = .	H = -5%
26. CCOc1ccc(S(=O)(=O)N2CCOCC2)cc1NS(=O)(=O)c1ccc(OC)c([N+](=O)[O-])c1
  A = 9%	B = .	C = .	D = 7%	E = 32%[activator]	F = 0%	G = .	H = -9%
33. Cc1ccc(C(=O)NCC(=O)OCC(=O)c2ccc3c(c2)NC(=O)CO3)cc1C
  A = -9%[46.1 µM]	B = -1%	C = .	D = 2%	E = -8%	F = 0%	G = .	H = -19%
